PINK1 modulator: PINK1 expression modulation. PINK1 immunofluorescence, high-content cytometry, 24 h. Potency, µM (highest dose often 76.6 µM), inactives show at the top dose activation (PINK1 increase), actives largely listed as activators. hit rate 0.2% among 410,000; active = well fitted activation curve with a large enough effect; inconclusive = small, poorly fitted or top-dose-only effect; inactive = flat fitted curve, though single readings scatter; cell line not stated here;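 further: potency means the concentration at half of the fitted maximal effect; % of control where 0% means no effect; nearly all actives have a fitted effect of over 65% in size; a mitochondrial uncoupler was the plate control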
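Compound titrations (5 concentrations, 24 h) on a stable cell line; DMSO and CCCP controls. Endpoint: fixed-cell PINK1 immunofluorescence with mitochondrial, cell and nuclear markers, scanned by microplate cytometer.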
ClpP mod: qHTS Assay for Activators of ClpP. Potency, µM (series often up to 57.5 µM), for the others: at the highest dose activity change, negative = active. purified B. subtilis ClpP, FRET peptide cleavage, 20 min. hit rate 1.9% among 340,000. ATP-dependent Clp protease proteolytic subunit (Bacillus subtilis (strain 168)), P80244. AID 651965, 2013; active = well fitted falling curve with a large enough effect; inconclusive = small, poorly fitted or top-dose-only effect; inactive = no such curve, though single readings can be large or run the other way; further: potency means the concentration at half of the fitted maximal effect; the source files actives as falling curves though it sought activators and does not explain the sign; nearly all actives have a fitted effect of over 65% in size; many hits overshoot -100%
Target sequence (P80244 whole entry, looked up): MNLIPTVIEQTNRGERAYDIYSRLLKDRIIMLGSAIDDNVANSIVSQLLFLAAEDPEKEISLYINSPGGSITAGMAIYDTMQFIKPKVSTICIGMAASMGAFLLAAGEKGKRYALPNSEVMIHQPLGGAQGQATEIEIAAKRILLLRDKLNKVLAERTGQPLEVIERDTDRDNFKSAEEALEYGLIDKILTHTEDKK
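Purified B. subtilis ClpP, 10 microg/mL final in Tris/HCl pH8 with KCl, BSA, glycerol and Tween-20, cleaved an Abz/nitrotyrosine-quenched decapeptide. Fluorescence (ex 320, em 430) was read at 0 and 20 min at room temperature. Delta was normalized to 5.8 microM ADEP and DMSO/no-enzyme controls.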
Menin-MLL FL inh: displaces fluorescein MLL peptide from human menin. FP activity change, % at 61.4 µM. 290,000 tested, under 10 active. AID 1766. Fluorescence polarization, fluorescein-MLL peptide displacement from menin; inconclusive = falling polarisation curve, or a change in total fluorescence; inactive = total fluorescence flat and polarisation flat or rising; no compound was filed as active; the % refers to the polarisation; negative = inhibition;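 further: % of control where 0% means no effect; inhibitors lower the polarisation; unlabelled MLL peptide was the positive control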
Sfp inh: Sfp phosphopantetheinyl transferase inhibition | Q9F4F7 | Biochemical Sfp PPTase activity, qHTS | Potency, µM, without a hit: max response, negative = inhibition, actives largely listed as inhibitors | hit rate 3.5% among 310,000 | AID 1490; active means well fitted inhibition curve with a large enough effect; inconclusive means small, poorly fitted or top-dose-only effect, or another doubt; inactive means no such curve, though single readings can be large or run the other way;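 further: the enzyme is Sfp with the accession as filed and its product quenches rhodamine fluorescence; potency means the concentration at half of the fitted maximal effect; 0% = enzyme reaction without inhibitor and -100% = no enzyme wells; top concentration of the series not given in the record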
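Compounds were incubated with enzyme (final 15 nM) for 15 min at room temperature before substrate addition started the reaction. Fluorescence at 525 nm excitation, 598 nm emission was recorded immediately and after 30 minutes.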
D2 agonist: human D2 receptor agonism in beta-arrestin assay | P14416 | DiscoveRx PathHunter D2 beta-arrestin, luminescence, 90 min; 100% = 57 uM dopamine signal | activation, % (test concentration not listed) | hit rate 0.084% among 360,000 | AID 624465; in the data active = activation above about 40%; inconclusive = about 15% to 40%; inactive = below about 15%; further: compound concentration not given in the record; the text of the record calls up to 30% inactive
Target sequence (P14416 whole entry, looked up): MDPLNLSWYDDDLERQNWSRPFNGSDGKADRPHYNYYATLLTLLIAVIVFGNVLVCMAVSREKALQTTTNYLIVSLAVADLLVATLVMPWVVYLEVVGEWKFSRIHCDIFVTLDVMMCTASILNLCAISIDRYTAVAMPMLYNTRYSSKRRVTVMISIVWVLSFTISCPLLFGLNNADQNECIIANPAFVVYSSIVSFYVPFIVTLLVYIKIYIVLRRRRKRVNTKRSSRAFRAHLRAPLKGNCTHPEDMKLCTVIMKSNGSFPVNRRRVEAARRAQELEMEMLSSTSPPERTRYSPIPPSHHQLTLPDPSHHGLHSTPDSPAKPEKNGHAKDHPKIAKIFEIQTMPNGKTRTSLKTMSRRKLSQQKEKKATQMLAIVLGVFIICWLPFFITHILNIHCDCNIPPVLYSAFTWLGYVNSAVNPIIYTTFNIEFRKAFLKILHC
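DiscoveRx PathHunter D2 beta-arrestin cells (2,100/well) attached overnight, then compound-stimulated 90 min at 37 C in HBSS/10 mM HEPES/0.1% Tween-20 buffer; beta-galactosidase complementation read by luminescence after 1 h at ambient temperature. Dopamine 57 uM final (EC100) as control.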
gsp agonist: agonists of gsp mutant (McCune-Albright syndrome) | gsp mutant cells, cAMP HTRF, 30 min; control for the full effect not named in the record | Potency, µM (series often up to 76.9 µM), for inactives: at the top dose activation (cAMP increase), actives largely listed as activators | hit rate 0.13% among 340,000 | AID 624287; active = well fitted activation curve with a large enough effect; inconclusive = small, poorly fitted or top-dose-only effect, or another doubt; inactive = no such curve, though single readings can be large or run the other way; cell line not stated here;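 further: phosphodiesterase inhibitor Ro 20-1724 added with compounds to block cAMP breakdown; potency means the concentration at half of the fitted maximal effect; nearly all actives have a fitted effect of over 60% in size; about a fifth of the inactives were tested at one dose only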
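Cells stably selected in G418 were plated at 2000/well, grown 16-24 hr, then given compounds in DMSO with the PDE inhibitor […] (300 uM solution added) for 30 min at 37C; cAMP was read by HTRF.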
gsp antagonist: gsp mutant antagonism. gsp-mutant cells, cAMP HTRF, 30 min; control for the full effect not named in the record. Potency, µM (series often up to 76.9 µM), for inactives: at the top dose activity change, negative = inhibition, usual class: inhibitors. hit rate 0.4% among 340,000. AID 624288; active = falling curve of any shape with a large fitted effect; inconclusive = falling curve, mostly with a smaller effect; inactive = flat or rising curve; cell line not stated here;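 further: intracellular cAMP measured with PDE inhibitor Ro 20-1724 present during compound exposure; potency means the concentration at half of the fitted maximal effect; on the % scale 0 is the no-effect control and ±100 the full control effect; nearly all actives have a fitted effect of over 65% in size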
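Cells in G418 medium, seeded 16-24 h, 37C; buffer exchange to DPBS + 1 mM CaCl2, 0.5 mM MgCl2, 0.05% BSA; cpds in DMSO + […] (300 uM stock), 30 min 37C; HTRF cAMP detection.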
Starred values were filed as active, the others as inactive; u = inconclusive; x = no result given; & = joins results of further samples; [ ] = dose if it differs, or a comment. Hits appear at their usual frequency; 5.1% or so of the library scored in one or more.

SMILES	PINK1 modulator	ClpP mod	Menin-MLL FL inh	Sfp inh	D2 agonist	gsp agonist	gsp antagonist
Cc1ccccc1CN1CCC(n2nccc2NC(=O)CCCc2ccccc2)CC1	4.2%	u	x	-1%	2.4	2%	-6%
CCOc1ccc(NS(=O)(=O)c2cnc(Cl)c(Cl)c2)cc1	1.2%	-0.4%	5.7	3%	0.2	-6%	4%
Cc1cccc(NC(=O)c2ccc3ccccc3n2)n1	9.1%	4.3%	3.8	-5%	-3.9	u	3%
CN(C)S(=O)(=O)Oc1ccc(Cl)cc1C(=O)Nc1cccc(C(F)(F)F)c1	3.9%	-0.3%	4.2	1%	-5.1	-19%	-3%
COc1ccc(Nc2nc(NCc3ccco3)nc(N/N=C/c3ccccc3Cl)n2)cc1	-3.0%	-8.0%	4.4	21%	-3.9	25%	-4%
Cc1ccc2nc(SCC(=O)c3c(N)n(C4CC4)c(=O)[nH]c3=O)[nH]c2c1	0.7%	2.4%	x	x	-3.4	20%	3%
COc1ccc(NC(=O)CCCc2nnc3n(C)c(=O)c4sccc4n23)cc1	-0.6%	-1.6%	-1.0	11%	0.4	u	10%
O=C(Nc1ccc(F)c(Cl)c1)c1ccccc1	0.5%	-0.6%	x	x	0.8	x	-7%
Cc1ccc2nc(SCc3nnc(-c4ccccc4[N+](=O)[O-])o3)c(C#N)cc2c1	1.5%[38.3 µM]	-0.9%	11	11%	0.1	-12%	-6%
CC(NC(=S)Nc1ccc(OC(F)F)c(Cl)c1)C(C)(C)C (configuration not stated)	u	0.0%	-4.2	10%	2.6	u	u
COC(=O)Nc1ccc2ccc3c(NC(=O)OC)ccc4ccc1c2c43	18%	-4.2%	x	x	2.5	2%	-5%
CSc1ccc(C2NC(=O)CCC2[N+](=O)[O-])cc1 (configuration not stated)	0.9%	-0.9%	-3.5	12%	-2.8	-4%	2%
CCCn1c(SCC(=O)c2ccc3c(c2)OCCO3)n[nH]c1=O	-2.0%	x	4.0	-19%	0.9	-4%[15.4 µM]	x
C/C(=N\NC(=O)c1cccc(S(=O)(=O)N2CCOCC2)c1)c1ccco1	-0.7%	x	-0.4	3%	-5.7	-5%[15.4 µM]	5%
Cc1ccccc1C(=O)Nc1ccc(Br)cn1	8.6%[38.3 µM]	1.3%	1.5	12%	0.5	-38%[inhibitor]	5%
COc1ccc(CN(C)C(=O)c2cnc(OC)cc2C(F)(F)F)c(OC)c1	-0.1%	1.0%	0.3	25%	-2.5	-15%	9%
Cn1c(CNC(=O)OC(C)(C)C)nnc1SCc1c(Cl)cccc1Cl	2.0%	-0.5%	1.3	13%	4.6	0%[15.4 µM]	-10%
Cc1ccc2c(c1)cc(CN(CCc1ccccc1)C(=O)N1CCOCC1)c1nnnn12	0.2%	-0.4%	1.8	-4%	0.1	-30%[inhibitor]	-8%
CNC(=O)C(=O)NCCCN1CCOCC1	2.3%	0.3%	0.2	21%	1.4	29%	14%
Cc1ccc(C)c(N2CCN(C(=O)c3ccc(CS(=O)(=O)c4ccccc4C)o3)CC2)c1	5.8%[38.3 µM]	1.1%	6.2	-8%	0.7	7%	u
Cc1nn(CC(=O)N/N=C/c2ccc(F)cc2)c(C)c1[N+](=O)[O-]	0.4%	x	-2.1	-4%	3.9	19%[15.4 µM]	8%
Cc1c(NS(=O)(=O)c2cccc(C(=O)OCC(=O)N(C)C3CCCCC3)c2)c(=O)n(-c2ccccc2)n1C	1.5%	-1.2%	-0.3	17%	3.9	4%	-2%
Cc1ccc(CNC(=O)C2CCN(S(=O)(=O)N3CCCCC3)CC2)cc1	-1.2%&-0.2%	0.2%	-5.1	9%	4.2	-2%	-3%
Cc1cc(C)cc(C(=O)NC(CC(N)=O)c2ccc(N3CCC(N4CCCCC4)CC3)c([N+](=O)[O-])c2)c1 (configuration not stated)	1.2%	-0.8%	-0.1	10%	-0.9	x	9%
CCN(CC(=O)Nc1ccc(NC(C)=O)cc1)C(=O)c1ccc(=O)[nH]c1	2.9%	-2.2%	x	9%	1.5	-16%	6%
CCOc1ccc(C(=O)Nc2cccc(SC)c2)cc1	-0.3%	-0.5%	4.5	-2%	2.5	3%[15.4 µM]	-5%
O=C(NCC(=O)N(CCN1CCOCC1)C(C(=O)NC1CCCC1)c1cccs1)c1ccco1 (configuration not stated)	0.5%	1.5%	4.4	-2%	1.4	-41%	9%
Cc1ccc(C(=O)N/C(=C\c2cn(C)c3ccccc23)C(=O)OCCN(C)C)cc1	-1.0%	x	6.6	-1%	-1.1	17%[15.4 µM]	-7%
Cc1cc(F)ccc1-c1cc(C(=O)Nc2ccccc2)[nH]n1	9.8%	-0.4%	x	x	7.0	x	x
COCCn1cnnc1SCC(=O)Nc1ccc(N2CCCCC2)cc1	-1.4%	-1.7%	x	x	1.7	2%	-2%
Cc1cc(C)c(S(=O)(=O)N2CCN(C(=O)c3ccc(-n4nc(C)c(Cl)c4C)cc3)CC2)c(C)c1	1.9%	-1.4%	x	x	u	u	-27%
N#Cc1ccc(CN2CCCC3(CCN(C(=O)c4csnn4)CC3)C2)cc1	-0.9%	x	-2.0	1%	x	x	x
CCCCOC(=O)CCc1c(C)[nH]c(=S)[nH]c1=O	-0.5%	-1.7%	9.8	1%	-0.8	-25%	-6%
COCCNc1nc2nonc2nc1N1CCC(N(C)C)C1 (configuration not stated)	2.3%	0.9%	-1.0	-6%	-1.9	0%	4%
COc1ccc(-n2nc([N+](=O)[O-])c(=NCCCN3CCCC3=O)n2O)cc1	-0.8%	-0.5%	-5.7	18%	9.8	u	-7%
O=C(NC1CCCC1)c1cnc2n(c1=O)CCS2	0.4%	-5.6%	1.6	-4%	-8.6	u	12%

Already shown: entries from further up.
SMILES	PINK1 modulator	ClpP mod	Menin-MLL FL inh	Sfp inh	D2 agonist	gsp agonist	gsp antagonist
COCCNc1nc2nonc2nc1N1CCC(N(C)C)C1 (configuration not stated)	2.3%	0.9%	-1.0	-6%	-1.9	0%	4%
COc1ccc(-n2nc([N+](=O)[O-])c(=NCCCN3CCCC3=O)n2O)cc1	-0.8%	-0.5%	-5.7	18%	9.8	u	-7%
O=C(NC1CCCC1)c1cnc2n(c1=O)CCS2	0.4%	-5.6%	1.6	-4%	-8.6	u	12%

Next results:
SMILES	PINK1 modulator	ClpP mod	Menin-MLL FL inh	Sfp inh	D2 agonist	gsp agonist	gsp antagonist
O=C(C1CCCCC1)N1C[C@H](O)[C@@H](n2cc(C3CC3)nn2)C[C@@H]1c1ccccc1	-1.1%	0.9%	x	x	-4.6	-44%[inhibitor]	x
CCC[C@H]1NC(=O)[C@H](C)N(C)C(=O)C(C)(C)C(=O)C(C)NC(=O)[C@H](Cc2ccc(OC)cc2)N(C)C(=O)[C@H](C(C)C)N(C)C(=O)CNC(=O)[C@H](CC(C)C)N(C)C(=O)CNC(=O)[C@H]([C@@H](C)CC)OC(=O)[C@H]1C (some centres not stated)	2.6%	2.4%	x	x	-3.2	x	8%
Cc1ccnc(N2CCC(C(=O)NNC(=O)c3ccccc3C)CC2)n1	u	u	4.5	9%	1.0	-26%	2%
COc1ccc(N2CC(C(=O)N3CCOCC3)CC2=O)cc1 (configuration not stated)	-1.6%	x	-0.7	14%	2.2	-8%	11%
COc1cccc(CSc2nc3ccccc3[nH]2)c1	1.1%	1.6%	1.4	6%	2.4	8%	-23%
CC1=C(C(=O)N2CCOCC2)CC(CC(=O)NCC2CCCCC2)C(=O)N1CCCN1CCCC1=O (configuration not stated)	2.0%	0.7%	x	x	1.3	-21%	x
COc1ccc(CNC(=O)c2ccc[nH]2)cc1	1.3%	0.1%	-3.5	-27%	-2.9	-15%[15.4 µM]	12%
Cc1ccc2nc(SCc3ccc([N+](=O)[O-])cc3)[nH]c2c1	1.9%[38.3 µM]	1.8%	-1.1	14%	2.4	27%	-22%
O=C(NCc1cccs1)c1ccc(N2CCCCC2)nc1	x	-16%	-0.6	-10%	-1.0	29%	6%
C=CCN(C(C)=O)C1CC(=O)N(c2ccc(OCCC)cc2)C1=O (configuration not stated)	-0.1%	1.5%	3.4	6%	-3.7	3%	6%
O=C(CSc1ccc(Cl)cc1)Nn1cnnc1	-0.9%	2.3%	-1.5	-1%	-1.7	20%	5%
COCc1cc(=O)n2[nH]c(N)nc2n1	1.5%	-2.2%	11	-6%	-0.8	u	4%
Cc1cc(C(F)F)n2ncc(C(=O)NCc3ccccc3)c2n1	-2.9%	-7.3%	4.9	-11%	-3.0	-4%	6%
COC(=O)c1ccc(NC(=O)CN2CCN(CC#N)CC2)cc1	1.4%	0.4%	-2.1	u	2.2	-2%[15.4 µM]	-7%
COc1cc(C(=O)n2nc(C)cc2C)cc(OC)c1OC	u	-1.8%	4.6	10%	-3.3	-23%	-4%
Cn1c(SCC(=O)NC2CC2)nnc1-c1ccco1	-0.1%	1.6%	2.6	0%	-2.9	-7%	-9%
CC1CN(c2nc(Nc3ccccc3F)nc(N)c2[N+](=O)[O-])CC(C)O1 (configuration not stated)	4.1%	x	-1.2	6%	2.0	-21%	-15%
Cc1ccc(N2N=C(c3ccc(F)cc3)CC2c2ccco2)cc1 (configuration not stated)	10%	3.7%	-2.4	u	-3.4	10%	-13%
COc1ccc(OC)c(C2NC(=O)NC(C)=C2C(=O)Nc2ccc(C)cc2)c1 (configuration not stated)	1.3%[38.3 µM]	-0.4%	0.0	19%	-1.7	u	-2%
O=C(Nc1ccc(C(=O)NC2CCCCC2)cc1)c1cccnc1	7.6%	x	-3.6	15%	-4.3	-19%[15.4 µM]	-22%
Cc1cccc(CN2CCCC(C(=O)Nc3ccccc3Oc3cccnc3)C2)c1 (configuration not stated)	0.3%	0.7%	-2.8	-11%	-1.1	-17%	2%
COc1ccccc1NC(=O)COC(=O)c1cnc(C)cn1	0.5%	x	2.6	-17%	0.8	-18%	6%
